Assay outcomes as filed in PubChem BioAssay.
TRPML1 ag – agonists of human TRPML1 channel; activation, % (concentration not given with the values); actives 0.12% (n = 410,000); TRPML1-expressing cells, Ca2+ dye fluorescence, FDSS; host cell line not named in the record; reference of the full effect not given here; AID 624414; Q9GZU1; in the data active = activation above about 50%; inconclusive = about 30% to 50%; inactive = below about 30%; further: 0% is about no effect; the text of the record puts the active cut at 80%
Target sequence (Q9GZU1 whole entry, looked up): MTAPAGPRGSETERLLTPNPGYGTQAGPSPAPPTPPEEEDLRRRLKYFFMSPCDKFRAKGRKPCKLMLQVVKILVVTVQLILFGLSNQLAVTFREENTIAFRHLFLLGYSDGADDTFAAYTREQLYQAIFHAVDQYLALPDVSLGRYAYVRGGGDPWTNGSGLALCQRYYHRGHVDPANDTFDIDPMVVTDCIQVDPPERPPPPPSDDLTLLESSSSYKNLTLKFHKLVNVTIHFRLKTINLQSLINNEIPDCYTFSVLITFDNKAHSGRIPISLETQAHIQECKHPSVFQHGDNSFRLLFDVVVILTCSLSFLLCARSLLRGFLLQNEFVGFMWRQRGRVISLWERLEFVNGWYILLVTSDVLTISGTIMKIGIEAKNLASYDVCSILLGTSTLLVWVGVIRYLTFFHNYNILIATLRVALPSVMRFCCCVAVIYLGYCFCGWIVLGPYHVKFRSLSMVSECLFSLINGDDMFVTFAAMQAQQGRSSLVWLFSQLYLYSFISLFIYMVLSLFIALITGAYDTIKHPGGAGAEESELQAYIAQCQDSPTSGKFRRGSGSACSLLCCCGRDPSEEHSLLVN
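Tet-induced TRPML1-DL cells, 1,500 per well, cultured overnight, were loaded with a no-wash Ca2+ dye for 45–90 min. Calcium fluorescence was recorded on the FDSS for 110 s after compound addition, before the EC80 agonist (4 uM 54-4) was added.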
PINK1 modulator – modulators of PINK1 expression; actives 0.2% (n = 410,000); AID 624263; Potency, µM (series often up to 76.6 µM), inactives show at the top dose activation (PINK1 increase), hits mostly activators; PINK1 immunofluorescence, high-content cytometry, 24 h; active = well fitted activation curve with a large enough effect; inconclusive = small, poorly fitted or top-dose-only effect; inactive = flat fitted curve, though single readings scatter; cell line not stated here;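 further: potency means the concentration at half of the fitted maximal effect; % of control where 0% means no effect; nearly all actives have a fitted effect of over 65% in size; a mitochondrial uncoupler was the plate control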
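Decision-based qHTS: stable cells, 24 h exposure to five compound concentrations, CCCP as control. Fixed cells stained for PINK1 plus nuclear, mitochondrial and cell markers, cytometer read.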
D2 ag – agonists of human D2 dopamine receptor (beta-arrestin); P14416; DiscoveRx PathHunter D2 beta-arrestin, luminescence, 90 min; 100% = 57 uM dopamine signal; activation, % (no concentration beside the values); actives 0.084% (n = 360,000); AID 624465; in the data active = activation above about 40%; inconclusive = about 15% to 40%; inactive = below about 15%; further: compound concentration not given in the record; the text of the record calls up to 30% inactive
Target sequence (P14416 whole entry, looked up): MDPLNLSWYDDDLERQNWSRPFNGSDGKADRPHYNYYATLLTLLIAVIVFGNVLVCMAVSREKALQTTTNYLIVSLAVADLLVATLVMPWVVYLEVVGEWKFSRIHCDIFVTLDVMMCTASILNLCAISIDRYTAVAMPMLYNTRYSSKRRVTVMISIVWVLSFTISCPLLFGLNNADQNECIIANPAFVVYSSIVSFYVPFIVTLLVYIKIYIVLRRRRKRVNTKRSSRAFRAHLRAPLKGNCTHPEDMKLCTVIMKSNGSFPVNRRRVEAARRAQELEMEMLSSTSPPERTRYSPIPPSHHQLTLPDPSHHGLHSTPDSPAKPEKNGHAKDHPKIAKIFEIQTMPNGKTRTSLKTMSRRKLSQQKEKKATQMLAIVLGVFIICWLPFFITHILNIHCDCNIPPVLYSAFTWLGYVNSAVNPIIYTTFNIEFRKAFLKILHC
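DiscoveRx PathHunter D2 beta-arrestin cells (2,100/well) attached overnight, then compound-stimulated 90 min at 37 C in HBSS/10 mM HEPES/0.1% Tween-20 buffer; beta-galactosidase complementation read by luminescence after 1 h at ambient temperature. Dopamine 57 uM final (EC100) as control.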
D2 potentiator – positive allosteric modulators of human D2 dopamine receptor; AID 624464; DiscoveRx D2 beta-arrestin cells, luminescence, 90 min; 100% = 57 uM dopamine signal; actives 0.23% (n = 360,000); potentiation, % (test concentration not listed); P14416; active = potentiation of 50% or more; inconclusive = 30% to 50%; inactive = 30% or less;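 further: compound concentration not given in the record; tested on top of an EC20 dose of dopamine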
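D2 cells co-treated with compound plus 50 nM dopamine (EC20) for 90 min at 37 deg C to detect potentiation. Beta-arrestin recruitment was read as enzyme-fragment luminescence after 1 h at ambient temperature. Full response was set by 57 uM dopamine.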
Six1-Eya2 inh – inhibitors of human Six1/Eya2 interaction; Q15475+O00167; AlphaScreen GST-Six1/His-Eya2 binding, biochemical; stronger effect = lower value; control for the full effect not named in the record; activity change, % (test concentration not listed); actives 0.56% (n = 360,000); AID 651725; in the data active = activity change below about -65%; inconclusive = about -30% to -65%; inactive = above about -30%; further: on the % scale 0 is the no-effect control and ±100 the full control effect; compound concentration not given in the record
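Homogeneous AlphaScreen proximity assay pairing GST-Six1 with His-tagged Eya2 (added as 5X mix: 250 nM and 500 nM) in 50 mM Tris pH 8.0, 300 mM NaCl, 1 mM TCEP. Glutathione donor and nickel acceptor beads; 1 h, 37 °C, dark.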
CtBP-E1A blk – inhibitors of CtBP/E1A interaction | AID 651724 | AlphaScreen GST-E1A/His-CtBP binding, 1536-well; stronger effect = lower value; control for the full effect not named in the record | actives 0.49% (n = 340,000) | activity change, % (test concentration not listed); in the data active means activity change below about -65%; inconclusive means about -30% to -65%; inactive means above about -30%; further: on the % scale 0 is the no-effect control and ±100 the full control effect; compound concentration not given in the record
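Homogeneous bead-based format: GST-tagged E1A captured on glutathione donor beads, His-tagged CtBP on nickel acceptor beads; compounds precede bead addition by 2 h at 37 °C.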
* = called active by the depositor; u = inconclusive; x = no result given; & = joins results of further samples; [ ] = remark or other dose. Outcome played no part in choosing rows; about 1.3% have a hit in one of these screens.

entry	molecule	TRPML1 ag	PINK1 modulator	D2 ag	D2 potentiator	Six1-Eya2 inh	CtBP-E1A blk
1	CCOC(=O)c1c(NC(=S)Nc2ccc(OC)cc2)sc2c1CCC2	-0.2	7.8%	-2.7	-34	-1	-2
2	Cc1ccc(C(=O)c2coc3ccc(O)c(Cl)c23)cc1	0.4	-1.9%	2.6	0	-6	-16
3	Cc1nc2ccc(NC(=O)c3ccc4ccccc4n3)cc2s1	-1.0	8.7%	-1.5	-3	0	14
4	CC(C)(C)c1nnc(NC(=O)C2CC(=O)N(CCc3ccc(F)cc3)C2)s1 (stereo unspecified)	0.5	1.7%	-18	-3	0	10
5	COc1ccccc1N1CCN(C(=O)CCNS(=O)(=O)c2ccc(Br)s2)CC1	-0.4	1.6%	-2.5	-21	-5	1
6	CC1CCN(c2ccc(-c3cccc(NC(=O)C(F)(F)F)c3)nn2)CC1	1.2	-0.1%	0.3	-1	15	0
7	CCN(CC(=O)Nc1cccc(S(=O)(=O)N2CCOCC2)c1)Cc1ccccc1	-0.1	-0.5%	1.1	2	4	3
8	COc1ccc(NS(=O)(=O)c2ccc(N3CCN(CCO)CC3)c([N+](=O)[O-])c2)cc1	1.0	0.0%	-3.8	0	3	2
9	Cc1ccc(NC(=O)CCN2C(=O)c3ccccc3Sc3ncccc32)cc1	0.0&-0.2	-0.1%&-1.3%	0.9	-28	3	-1
10	CC(NC(=O)c1cc(-c2ccc3c(c2)OCO3)nc2ccccc12)C(C)(C)C (stereo unspecified)	1.3	13%	-6.8	-27	4	-1
11	c1ccc(CC2CCN(C(c3cccs3)c3nnnn3C3CCCC3)CC2)cc1 (stereo unspecified)	0.7	-6.3%[38.3 µM]	2.4	-19	-2	-3
12	Cc1ccnc(NS(=O)(=O)c2ccc(NC(=O)C3CCCCC3C(=O)O)cc2)n1 (stereo unspecified)	-0.4	-0.3%	-2.5	4	19	1
13	COCCN(C(=O)c1ccco1)c1nnc(-c2ccc(OC)cc2)s1	3.5	-3.3%	-0.8	7	1	0
14	COc1ccc(C)cc1S(=O)(=O)N1CCN(Cc2ccccc2)CC1	0.0	-2.6%	-3.8	-13	0	4
15	O=C(CN1CCCCCC1)Nc1cccc(NC(=O)CN2CCCCCC2)c1	-0.5	-1.6%	-5.5	-30	2	x
16	CCOC(=O)C1=C(C)Nc2ccccc2N=C1NC(=O)Cc1ccc(Br)cc1	-0.4	9.0%	-0.7	-7	6	8
17	CCn1nc(C(=O)OCC(=O)NCC(C)C)c2ccccc2c1=O	0.2	2.8%	-1.3	-3	7	13
18	O=c1ccc(Oc2nc(N3CCOCC3)nc(N3CCOCC3)n2)nn1-c1ccccc1	0.8	-6.0%[38.3 µM]	3.2	-5	1	4
19	CCCCOc1ccccc1C(=O)N(Cc1ccc(C)o1)C1CCS(=O)(=O)C1 (stereo unspecified)	-0.6&-0.4	1.1%&0.4%	-5.1	-1	-1	x
20	O=c1[nH]cccc1-c1nc2ccccc2n1Cc1ccccc1F	0.5	-0.3%	-1.0	-7	-2	x
21	O=C(O)c1ccc(Cl)c(NC(=O)C2CCCN2S(=O)(=O)c2cccc3nsnc23)c1 (stereo unspecified)	0.5	2.2%	0.0	-3	-1	-5
22	Cc1n[nH]c(=O)n1-c1cccc(C(F)(F)F)c1	-0.5	-1.6%	-1.9	3	1	11
23	O=C(NCCCCO)c1c(-c2ccccc2)oc2c1C(OCCCCCO)CCC2 (stereo unspecified)	-0.7	-0.3%	x	x	15	-11
24	O=C1COc2ccc(C(=O)COC(=O)c3ccccn3)cc2N1	0.1	0.2%	14	7	u	-3
25	O=C(NCc1ccccc1)C1=C[C@@H](c2ccc(C(F)(F)F)cc2)C[C@@H](OCCCCO)O1	0.1	3.6%	-7.6	-16	5	4
26	COc1ccccc1CN(C)C(=O)c1cc(-c2cccs2)nc2ccccc12	2.7	-2.9%	u	17	-19	-5
27	NC(=O)c1ccc(NC(=O)CCCc2nc(-c3ccccc3Cl)no2)cc1	0.2	0.4%[38.3 µM]	0.1	-1	-10	-13
28	COc1ccc(N(C(=O)c2snc(C(N)=O)c2N)C(C(=O)NC2CCCC2)c2cccs2)c(OC)c1 (stereo unspecified)	0.0	0.1%	-3.3	2	-4	-22
29	Cc1csc(NC(=O)c2nn(C)c(C)c2[N+](=O)[O-])n1	-0.5	0.1%	-0.9	-20	-4	-2
30	COc1cc2cc(CN(CCO)C(=O)c3cccs3)c(=O)[nH]c2cc1OC	1.5	5.1%[38.3 µM]	-1.6	1	-8	-6
31	CCCN(CCC)CCNC(=O)C1c2ccccc2C(=O)N(CCOC)C1c1ccc(F)cc1 (stereo unspecified)	0.5	-1.0%	0.7	-9	2	1
32	C#CCn1c(=NC(=O)c2ccco2)sc2cccc(Cl)c21	2.9	7.2%	-1.5	3	5	0
33	Cc1ccc(Cn2c(C)c(C(=O)NCc3ccccc3C(F)(F)F)sc2=O)cc1	0.1	0.4%	-3.9	-3	0	5
34	Cn1c(COc2cccc3ccccc23)nnc1SCC(=O)OC1CCCCC1	-0.5	5.9%	-3.7	-14	-3	x
35	O=C1C=C(c2ccccc2)C[C@@H](c2ccc3c(c2)OCO3)C1	3.6	1.0%	-0.7	-3	-12	x
36	CC1=NN(c2nc(-c3ccc(C)cc3)cs2)C(=O)C1N=Nc1cccc(C)c1 (stereo unspecified)	0.7	15%	-2.6	7	-29	-12
37	CC(C)C1C(=O)N(Cc2cn(CC3CCCCC3)nn2)CCS(=O)(=O)N1Cc1ccc(-c2cccc(CO)c2)cc1 (stereo unspecified)	0.3	1.2%	0.2	-9	-9	2
38	CN(c1ccccc1)S(=O)(=O)c1ccc(NC(=O)c2ccco2)cc1	-0.2	0.4%	2.0	1	1	3
39	COc1ccc(-c2noc(C)c2-c2ccc3ccccc3n2)c(O)c1	2.3	3.4%	-5.3	-8	-18	-4
40	COc1cc2c(cc1OC)CN(CC(=O)Nc1ccccc1C#N)CC2	-0.2	-1.3%	-4.4	13	u	-28

Structural class: the entries above with an NH in an aromatic ring.
entry	molecule	TRPML1 ag	PINK1 modulator	D2 ag	D2 potentiator	Six1-Eya2 inh	CtBP-E1A blk
20	O=c1[nH]cccc1-c1nc2ccccc2n1Cc1ccccc1F	0.5	-0.3%	-1.0	-7	-2	x
22	Cc1n[nH]c(=O)n1-c1cccc(C(F)(F)F)c1	-0.5	-1.6%	-1.9	3	1	11
30	COc1cc2cc(CN(CCO)C(=O)c3cccs3)c(=O)[nH]c2cc1OC	1.5	5.1%[38.3 µM]	-1.6	1	-8	-6

Going on with the list:
entry	molecule	TRPML1 ag	PINK1 modulator	D2 ag	D2 potentiator	Six1-Eya2 inh	CtBP-E1A blk
41	O=C(Nc1cccc(F)c1)c1coc(=O)c(Br)c1	0.5	5.5%	-4.4	-8	-13	-19
42	Cc1ccc(CN2CCN(C(=O)CC(C)C)CC2)cc1	-0.4	0.0%	8.9	7	3	x
43	CCOc1ccc(CCN2C(=O)C(=O)N([C@@H](Cc3ccc(O)cc3)CN3CCC[C@H]3CN3C(=O)C(=O)NC[C@@H]3Cc3ccc(O)cc3)C[C@@H]2Cc2ccc(O)cc2)cc1	-0.3	1.5%	x	x	-12	7
44	CN(CCO)c1ncnc2nc[nH]c12	-0.6	4.3%	-3.2	-9	5	0
45	CCN1CCCC1CNC(=O)c1ccc2c(=O)n(CCOC)c(=O)[nH]c2c1 (stereo unspecified)	-0.8	1.3%	0.5	-5	0	8
46	Cc1cc(Cc2cc(C)c(N)cc2C)c(C)cc1N	-0.3	1.1%	-5.3	-6	-1	-5
47	CCn1c(SCC(=O)c2c(N)n(C3CC3)c(=O)[nH]c2=O)nc2cc(S(N)(=O)=O)ccc21	-0.2	4.8%	-3.0	-6	5	x
48	CCCc1cc(-c2n[nH]c(=S)n2-c2cccc(C)c2)cs1	-0.1	1.1%	5.5	-36	-16	-7
49	Cc1cccc(NC(=O)c2ncn3c2C(=O)NC[C@H]3C)c1	0.6	-0.8%	0.2	4	-4	-4
50	CCOC(=O)C1(CCCc2ccccc2)CCN(S(C)(=O)=O)CC1	-0.3	0.3%	1.6	1	6	5
51	O=C(Nc1ccc(Cl)cn1)C1CC1	0.5	-1.3%	1.9	-10	8	x
52	CC(=Nc1ccccc1)C1=C(O)COC1=O	0.6	3.8%[38.3 µM]	-0.6	11	5	6
53	O=C(c1cccc(C(F)(F)F)c1)C1CCCN(C(=O)c2cc(C3CC3)[nH]n2)C1 (stereo unspecified)	-1.3	-0.5%	2.5	-4	0	1
54	O=C(NC1CCN(C(=O)NC2CCCCC2)CC1)c1cccc(F)c1	0.2	1.0%	-0.9	-8	5	-8
55	COc1ccc(/C=C/c2c(-c3ccc(OC)cc3)sc3cc(OC)c(OC)cc23)cc1	-0.6	-0.3%	-2.7	x	0	-1
56	O=C(Nc1cnccn1)Nc1ccc(Cl)cc1Cl	-0.2	-1.5%	-1.5	-1	13	x
57	O=C(CCCCCNC(=O)N1CCn2c1nc1ccccc12)N[C@@H](Cc1ccccc1)C(=O)O	x	-0.3%	-4.9	-6	-18	-6
58	Cc1nc(SCC(=O)NCCc2ccccc2)c2c(=O)n(C)c(=O)n(C)c2n1	-0.3	-0.4%	-2.7	-16	3	-2
59	CCOC(=O)c1sc2nccc(OC)c2c1N=CNOC	0.4	-1.6%	-2.8	-9	-19	4
60	COc1cc(Cl)ccc1OCc1cc(C(=O)N2C[C@@H]3CCC[C@H]2C3)no1	-0.4	-0.1%	-2.4	-14	3	-4
61	COc1ccc(C2=C(CN(C)C)C(c3ccccc3)c3ccccc3O2)cc1 (stereo unspecified)	1.4	u	-6.0	-41	u	-30
62	CC(/C=C1\SC(=S)N(NC(=O)c2ccc(O)cc2)C1=O)=C\c1ccccc1	-0.5	11%	-11	-8	-7	-1
63	Cc1cc(O)cc(O[C@H]2OC(CO)[C@H](O)[C@@H](O)[C@H]2O)c1 (stereo partly specified)	-0.3	-0.7%	-1.6	-3	0	6
64	COc1ccc(NS(=O)(=O)c2ccc3ccccc3c2)c2ncccc12	1.4	11%	-4.8	-16	-26	u
65	Cc1cc(-n2c(C)cc(C(=S)N3CCOCC3)c2C)ccc1Br	1.5	-2.6%	-2.7	-15	-24	-17
66	Cc1ccccc1CNC(=O)CCC(=O)N1CCOc2ccc(Cl)cc21	0.6	1.1%	-6.9	-13	5	0
67	Cc1ccc(C)c(N(CC(=O)NC2CCCC2)S(=O)(=O)c2ccccc2)c1	2.1	0.4%	-6.3	-7	18	8
68	COC(=O)c1ccc(NC(=O)c2cc(Cl)ccc2OC)cc1	-0.1	5.5%	-3.7	0	5	5
69	COc1ccc(CCNC(=O)CNS(=O)(=O)c2ccc(N(C)C)c([N+](=O)[O-])c2)cc1OC	-0.3	1.4%	1.9	-4	-6	x
70	CCOc1ccccc1C(=O)n1nc2nc(C)cc(C)c2c1N	0.2	2.0%[38.3 µM]	-2.5	-16	-1	-5
71	CC(CCc1ccc(O)cc1)NC(c1ccccc1)c1ccc(Cl)cc1 (stereo unspecified)	0.5	-1.5%	8.9	-21	-6	0
